HNF4A DNA FP: change in binding of human HNF4A to DNA, primary screen, biochemical, fluorescence polarization, FITC-DNA; activity change, % at 10 µM; 1 h; hit rate 0.3% among 360,000; in the data active = activity change above about 30%, passing the limit was not always enough;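 note: controls were the assay level and a saturating level of protein; the project sought stronger binding though the title names inhibitors; some compounds called inactive have numbers as strong as hits; positive values seem to mean higher polarization but the record does not say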
Ecoli rRNA inh: reduced GFP signal of wild-type E. coli, primary screen, bacterial rRNA inhibitor project, GFP/RFP fluorescence, OD600, single point | E. coli WT GFP vs humanized-ribosome RFP mutants, 24 h; hits give low values; DMSO median 0, no signal -100 | GFP signal change (wild-type ribosome), % (no concentration beside the values) | hit rate 1.6% among 350,000 | AID 720706, 2013;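 active = significant combined selectivity score with lowered wild-type GFP, culture density cut under 30%, mutant RFP and density less affected; inactive = any of these conditions unmet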; note: one replicate is shown; some compounds called inactive have numbers as strong as hits
MLL AF4-AF9 inh: inhibitors of AF4 peptide binding to AF9, primary screen, biochemical, AlphaScreen, biotin-AF4 peptide, FLAG-AF9, single point. Protein AF-9 (Homo sapiens), P42568. inhibition, % at 10 µM. hit rate 0.47% among 350,000. AID 651704, 2012;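 active = every replicate reaching a set inhibition limit, whatever the replicate mean, cut at about 25% in these data; inconclusive = mean inhibition reaches that limit but some replicates miss it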;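 note: 0% = plate neutral control median and 100% = total signal loss; the record names both 10 and 1 µM as test concentration; the first replicate is given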
Target sequence (P42568 whole entry, looked up): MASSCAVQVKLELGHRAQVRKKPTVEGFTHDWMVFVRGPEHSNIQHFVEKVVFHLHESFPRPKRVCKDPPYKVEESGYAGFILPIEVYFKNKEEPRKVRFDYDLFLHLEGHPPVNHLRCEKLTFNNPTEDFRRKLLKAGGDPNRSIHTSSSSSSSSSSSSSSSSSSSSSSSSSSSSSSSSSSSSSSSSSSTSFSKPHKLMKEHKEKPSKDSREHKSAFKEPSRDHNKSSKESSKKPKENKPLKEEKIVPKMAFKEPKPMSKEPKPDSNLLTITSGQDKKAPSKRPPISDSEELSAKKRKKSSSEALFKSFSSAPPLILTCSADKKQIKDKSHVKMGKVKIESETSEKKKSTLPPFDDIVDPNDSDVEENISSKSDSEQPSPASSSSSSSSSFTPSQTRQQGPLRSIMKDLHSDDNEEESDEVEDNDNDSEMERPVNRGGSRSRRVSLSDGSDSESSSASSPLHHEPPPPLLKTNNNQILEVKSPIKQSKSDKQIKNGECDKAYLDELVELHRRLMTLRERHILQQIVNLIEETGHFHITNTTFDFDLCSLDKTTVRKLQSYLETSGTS
Vif A3G: inhibitors of Vif binding to APOBEC3G peptide, primary screen, biochemical, TR-FRET, GST-Vif 1-94, biotin-A3G peptide, dose response retest (AID 1117319) | hit rate 0.57% among 260,000 | TR-FRET GST-Vif / biotin-A3G peptide binding; higher % means a stronger effect; test concentration not given here; strong numbers were not always called active | inhibition, %, or IC50 in µM where a hit was titrated | Virion infectivity factor (Human immunodeficiency virus type 1 group M subtype B (isolate …;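 active = above the screen mean plus three standard deviations and confirmed in dose response; inconclusive = results disagree or hit not tested in dose response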;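 note: Vif residues 1-94 fused to GST binding biotinylated APOBEC3G peptide 110-148; 0% = full assay without inhibitor and 100% = GST in place of GST-Vif; retest series ran down from 100 µM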
ALR H2O2 inh: inhibitors of human ALR sulfhydryl oxidase, primary screen, biochemical, H2O2 detection, HRP-luminol luminescence, single point; hit rate 3.8% among 290,000; purified ALR, DTT oxidation; AID 485317, 2010; inhibition, % (concentration not given with the values); FAD-linked sulfhydryl oxidase ALR (Homo sapiens), P55789;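 active = mean and each replicate at 75% or more; inconclusive = only one of the two met; inactive = neither met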;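 note: stock transfer was 7.5 nL into about 7.5 µL; 0% = neutral wells and 100% = wells with inactivated enzyme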
Target sequence (P55789 whole entry, looked up): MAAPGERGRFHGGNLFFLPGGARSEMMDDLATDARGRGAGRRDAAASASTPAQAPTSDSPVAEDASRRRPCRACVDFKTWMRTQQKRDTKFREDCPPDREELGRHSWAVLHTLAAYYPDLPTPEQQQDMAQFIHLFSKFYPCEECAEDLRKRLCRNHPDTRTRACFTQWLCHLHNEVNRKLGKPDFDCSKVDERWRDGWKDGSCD
FGF22 binding: binders of human FGF22 protein, primary screen, FGF22 synaptogenesis inhibitor project, biophysical, thermal shift, single point | Fibroblast growth factor 22 (Homo sapiens), Q9HCT0 | recombinant FGF22 thermal shift, SYPRO orange fluorescence; percent of sucrose octasulfate shift, DMSO zero | calls only at 9.99 µM | hit rate 1.5% among 340,000;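 active = melting point raised past a set limit in the mean and every replicate; inconclusive = no clear call; three in four hits are not shown here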
Target sequence (Q9HCT0 whole entry, looked up): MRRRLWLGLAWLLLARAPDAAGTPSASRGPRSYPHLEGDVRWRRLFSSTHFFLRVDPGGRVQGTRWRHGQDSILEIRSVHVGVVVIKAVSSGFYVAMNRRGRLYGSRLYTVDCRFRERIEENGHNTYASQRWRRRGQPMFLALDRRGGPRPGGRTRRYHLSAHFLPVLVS
E coli growth: E. coli growth inhibition, primary screen, OD600 | AID 1053175, 2014 | Escherichia coli growth, 23 h; hits give low values | OD600 absorbance (no concentration beside the values) | hit rate 0.21% among 330,000;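 active = OD600 absorbance below the run mean of sample wells minus 3.6 SD, in any replicate, cut at about 0.56 in these data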;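 note: stock transfer was 300 nL into about 60 µL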
Ecoli rRNA inh OD600: further read-out of Ecoli rRNA inh, marked with its call; OD600 change, %; measured here: OD600 growth;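 optical density of the mix in the first replicate; 0 = DMSO median and -100 = no signal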
Ecoli rRNA inh RFP: further read-out of Ecoli rRNA inh, marked with its call; RFP signal change, %; measured here: RFP humanized mutant strains;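 first replicate; 0 = DMSO median and -100 = no signal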
Starred values were filed as active, the others as inactive; i = inactive; ? = inconclusive; . = not tested or not shown; & = joins results of further samples. Some of the compounds tested. The share of hits here may be higher or lower than overall.

SMILES	HNF4A DNA FP	Ecoli rRNA inh	Ecoli rRNA inh OD600	Ecoli rRNA inh RFP	MLL AF4-AF9 inh	Vif A3G	ALR H2O2 inh	FGF22 binding	E coli growth
Cc1ccc(S(=O)(=O)Nc2ccc3c(c2)C(=O)N([C@H](C)CO)C[C@H](C)[C@@H](CN(C)C(=O)Nc2ccc4c(c2)OCO4)O3)cc1	-6.1	2&2	9&1	0.6&-0.5	-8.6	.	-5	i	0.76
C[C@H]1CN([C@@H](C)CO)C(=O)c2cccc(NC(=O)C3CCCCC3)c2O[C@@H]1CN(C)C(=O)Nc1ccc2c(c1)OCO2	.	2	4	-1.7	1.3	.	.	i	.
O=S(=O)(Cc1ccccc1)Nc1cccc(F)c1	0.9	10	4	-1.6	2.4	.	.	i	0.67
COc1cccc(NC(=O)N[C@H]2CC[C@H](CC(=O)N3CCN(C)CC3)O[C@H]2CO)c1	.	3	14	-0.3	-1.7	.	.	i	.
C[C@@H]1CN([C@@H](C)CO)C(=O)c2c(c3ccccc3n2C)-c2ccccc2CO[C@@H]1CN(C)Cc1ccc2c(c1)OCCN2C	.	-1	-7	4.5	31*	.	.	i	.
CCN(c1cccc(C)c1)S(=O)(=O)c1ccc2[nH]c(=O)c(=O)[nH]c2c1	1.2	.	.	.	5.6	-1%	-7	i	0.65
COC(=O)c1c(C(=O)OC)c(-c2ccc(OC)cc2)n2c1CCC2	2.0	-7	-15	1.8	3.9	0%	.	i	0.67
c1csc(-c2noc(CN3CCc4sccc4C3)n2)c1	-1.1	19	15	4.3	-2.1	5%	-25	i	0.7
NC1=NS(=O)(=O)NC1c1ccc(F)cc1 (centres undefined)	1.1	-4	13	-1.8	1.3	17%	-22	i	0.72
COc1cccc(CNc2nc3nc(C)cc(C)n3n2)c1	4.0	.	.	.	.	-5%	-4	.	0.68
Cc1ccc(NC(=O)Cn2ccc(=O)[nH]c2=O)cc1	2.5	5	4	-0.2	-1.2	-8%	3	i	0.65
O=C(NCc1cccs1)c1cc(-c2ccccc2)nc2ccccc12	-1.9	.	.	.	.	4%	.	.	0.66
CC(=O)/C(=N\Nc1ccccc1)Sc1cccc2cccnc12	-1.4	.	.	.	.	2%	6	.	.
COc1cc(CNC(=O)c2cc(-c3cc(Cl)ccc3OC)n[nH]2)cc(OC)c1	4.8	.	.	.	-2.1	.	.	i	.
CCCN(CC(=O)Nc1ccc(Cl)cc1Cl)C(=O)/C=C/c1cccc([N+](=O)[O-])c1	-0.2	2	-4	-0.4	1.4	.	3	i	0.69
CCCCCn1nnnc1C1(C)CCC(=O)N1Cc1ccco1 (centres undefined)	3.4	21	7	-0.3	-2.2	.	.	i	.
COc1ccc(S(=O)(=O)N(C)C[C@@H]2Oc3ccc(NC(=O)C4CC4)cc3CC(=O)N([C@@H](C)CO)C[C@H]2C)cc1	.	-6	-4	1.5	-9.8	.	.	i	.
CN(c1ccccc1)S(=O)(=O)c1cccc(C(=O)Nc2cccc(C(=O)NC3CC3)c2)c1	0.4	-1	1	-0.8	-0.7	-1%	.	i	0.71
CCC(=O)N(Cc1cc2ccc(C)cc2n2nnnc12)C1CCCCC1	3.4	.	.	.	.	-10%	-21	.	0.69
S=c1[nH]nc(-c2ccc(Br)cc2)n1-c1ccc(Br)cc1	0.1	-33	-44	-1.3	-4.0	.	?	i	0.63
CC(Nc1ccccc1)c1cccnc1 (centres undefined)	-3.2	8	2	-1.6	0.0	-8%	32	i	0.66
Cc1cc2nc(-c3cccc(Br)c3)c(CC3CCCCC3)n2c(C)c1Br	3.6	11	7	7.3	1.5	.	.	i	.
O=C(Nc1ncnc2sc3c(c12)CCCCC3)c1ccco1	0.6	.	.	.	.	0%	97*	.	0.72
COc1ccc(C2=NN(C(=S)Nc3ccccc3)C(c3ccccc3)C2)cc1 (centres undefined)	-0.7	.	.	.	.	.	-5	.	0.71
O=C(CN1C(=O)c2ccccc2C1=O)OCC(=O)N1CCN(c2ccccc2)CC1	1.7	1	3	-1.3	0.0	-5%	.	i	0.68
CC(C)OC(=O)CSc1nnc(-c2ccco2)n1N	-0.3	14	6	2.6	-2.8	3%	-7	i	0.67
COc1ccc(S(=O)(=O)N2CCOCC2)cc1NC(=O)c1ccccc1C	-0.3	2	0	-0.2	-1.4	.	5	i	0.66
O=C(CS(=O)(=O)c1ccc(F)cc1)Nc1nnc(-c2cccs2)o1	2.3	4	5	-1.3	-1.1	-2%	0	i	0.63
O=C(Cc1ccc([N+](=O)[O-])cc1)Nc1ccc2c(c1)C(=O)NC2=O	-1.1	10	-1	0.8	-1.7	0%	-5	i	0.74
COc1ccc(C(=O)Nc2ccc(Cl)cc2C(=O)NCc2ccco2)cc1	-0.5	.	.	.	.	10%	28	.	0.67

Exported with bars between the fields: entries from further up.
canonical_smiles | HNF4A DNA FP | Ecoli rRNA inh | Ecoli rRNA inh OD600 | Ecoli rRNA inh RFP | MLL AF4-AF9 inh | Vif A3G | ALR H2O2 inh | FGF22 binding | E coli growth
S=c1[nH]nc(-c2ccc(Br)cc2)n1-c1ccc(Br)cc1 | 0.1 | -33 | -44 | -1.3 | -4.0 | . | ? | i | 0.63
CC(Nc1ccccc1)c1cccnc1 (centres undefined) | -3.2 | 8 | 2 | -1.6 | 0.0 | -8% | 32 | i | 0.66
Cc1cc2nc(-c3cccc(Br)c3)c(CC3CCCCC3)n2c(C)c1Br | 3.6 | 11 | 7 | 7.3 | 1.5 | . | . | i | .
O=C(Nc1ncnc2sc3c(c12)CCCCC3)c1ccco1 | 0.6 | . | . | . | . | 0% | 97* | . | 0.72
COc1ccc(C2=NN(C(=S)Nc3ccccc3)C(c3ccccc3)C2)cc1 (centres undefined) | -0.7 | . | . | . | . | . | -5 | . | 0.71
O=C(CN1C(=O)c2ccccc2C1=O)OCC(=O)N1CCN(c2ccccc2)CC1 | 1.7 | 1 | 3 | -1.3 | 0.0 | -5% | . | i | 0.68
CC(C)OC(=O)CSc1nnc(-c2ccco2)n1N | -0.3 | 14 | 6 | 2.6 | -2.8 | 3% | -7 | i | 0.67
COc1ccc(S(=O)(=O)N2CCOCC2)cc1NC(=O)c1ccccc1C | -0.3 | 2 | 0 | -0.2 | -1.4 | . | 5 | i | 0.66
O=C(CS(=O)(=O)c1ccc(F)cc1)Nc1nnc(-c2cccs2)o1 | 2.3 | 4 | 5 | -1.3 | -1.1 | -2% | 0 | i | 0.63
O=C(Cc1ccc([N+](=O)[O-])cc1)Nc1ccc2c(c1)C(=O)NC2=O | -1.1 | 10 | -1 | 0.8 | -1.7 | 0% | -5 | i | 0.74
COc1ccc(C(=O)Nc2ccc(Cl)cc2C(=O)NCc2ccco2)cc1 | -0.5 | . | . | . | . | 10% | 28 | . | 0.67

More structures
SMILES	HNF4A DNA FP	Ecoli rRNA inh	Ecoli rRNA inh OD600	Ecoli rRNA inh RFP	MLL AF4-AF9 inh	Vif A3G	ALR H2O2 inh	FGF22 binding	E coli growth
C[C@H](CO)N1C[C@H](C)[C@H](CN(C)C(=O)Nc2ccccc2)Oc2ccc(NC(=O)c3ccncc3)cc2CC1=O	.	0	12	-0.1	-2.3	.	.	i	.
Cc1cc(C)cc(NC(=S)N2CCC(NC(=O)C3CC3)CC2)c1	4.2	8	11	-0.1	-6.9	.	-8	i	0.67
COc1cc(OC)c(NC2=CC(=O)C(=O)c3ccccc32)cc1Cl	2.5	-24	-22	-8.4	5.0	-1%	-10	i	.
Cn1c(=O)c2c(nc(CN3CCN(C(=O)c4ccco4)CC3)n2Cc2cccc(Cl)c2)n(C)c1=O	1.1	.	.	.	.	8%	-12	.	0.71
CCn1c(SCC(=O)N2CCCC2)nnc1-c1ccc(S(=O)(=O)N2CCCCCC2)cc1	-2.9	0	3	-0.1	.	2%	5	.	0.74
CC(C)Cc1nnc(NC(=O)CCC(=O)NC2CC2)s1	-0.2	20	20	3.6	0.4	.	-6	i	0.7
O=C(N/N=C/C(Br)=C/c1ccccc1)c1ccncc1	2.4	8	-2	-1.0	-7.2	.	.	i	.
Cc1cc(NC(=O)CSc2nnc(C3CC3)n2-c2ccccc2)no1	2.1	-4	-4	-1.7	-2.3	2%	0	i	0.71
COc1ccc(C(C)=O)cc1COc1cc(C)c(Cl)c(C)c1	0.8	6	-7	0.1	-1.0	-9%	0	i	0.7
Cc1cc(C)cc(N(C(=O)c2nsc(Cl)c2Cl)C(C(=O)NC2CCCC2)c2ccc(O)cc2)c1 (centres undefined)	-1.2	-1	0	-4.0	6.4	12%	2	i	0.71
CC(C)c1ccc(C(=O)NCCCN2CCOCC2)cc1	0.6	0	-11	3.1	1.2	-10%	-5	i	0.72
COc1ccc(-c2coc3c(C)c4oc(=O)c(CC(=O)O)c(C)c4cc23)cc1	-1.5	4	10	0.0	2.5	2%	.	i	0.71
Cc1ccccc1C(=O)c1cccn1CC(=O)NC(C)CCc1ccccc1 (centres undefined)	3.4	4	4	3.6	-3.7	-4%	-9	i	0.7
COc1ccc(CN(C)C[C@@H]2Oc3c(NS(=O)(=O)c4ccc(C)cc4)cccc3C(=O)N([C@H](C)CO)C[C@H]2C)cc1	.	4	4	0.3	3.0	.	.	i	.
O=C(Nc1ccccc1)C1CC(O)CN1S(=O)(=O)c1ccc([N+](=O)[O-])cc1 (centres undefined)	-1.6	8	3	-5.0	-3.2	.	-1	i	0.72
CO[C@@H]1CN(C)C(=O)c2cc(NS(=O)(=O)c3ccccc3)ccc2OC[C@H](C)N(Cc2cccnc2)C[C@H]1C	.	0	-2	5.1	0.7	.	.	i	.
O=C(Nc1ccc(F)c(Cl)c1)Nc1ccc(Cl)cn1	-0.2	.	.	.	.	7%	-17	.	0.72
CCN(CC(=O)NCc1ccc(Cl)cc1)Cc1cc(=O)n2ccsc2n1	-3.8	5	0	2.5	-0.7	1%	.	i	0.67
O=C(NCCO)c1cc2ccccc2c(=O)s1	1.6	.	.	.	.	4%	-29	.	0.64
COc1cccc(C(=O)/C=C/Nc2ccc(S(=O)(=O)Nc3cc(OC)nc(OC)n3)cc2)c1	-1.9	-1	-10	1.9	-6.6	.	9	i	0.64
O=C(Nc1ccccc1F)C1CCCC1	-0.7	.	.	.	1.0	.	-2	i	0.67
CNC[C@H]1OCc2ccccc2-c2ccccc2C(=O)N([C@H](C)CO)C[C@@H]1C	.	0	5	2.0	-2.0	.	.	i	.
CCOc1ccc(NC(=O)CSc2nc3ccsc3c(=O)n2CCCCCC(=O)O)cc1	-1.2	-4	-4	-2.2	-0.3	0%	.	i	.
Cc1ccc(N2CC(C(=O)NCc3ccc4c(c3)OCO4)CC2=O)cc1C (centres undefined)	0.5	.	.	.	.	-4%	-4	.	0.66

Compound activity (PubChem BioAssay)
